# StopGo reporter: FMDV 2A StopGo reporter, luciferase signal; human cells with a luciferase reporter of 2A StopGo recoding; control for the full effect not named in the record; Potency, µM (series often up to 57.9 µM), without a hit: at the top dose signal change, negative = less light; 1.2% of 410,000 active; AID 1159524; active = well fitted falling curve with a large enough effect; inconclusive = small, poorly fitted or top-dose-only effect; inactive = no such curve, though single readings can be large or run the other way; tested in HEK293T cells; note: % is set by controls: 0 for no effect and ±100 for the full control effect; nearly all actives have a fitted effect of over 45% in size; luciferase light after 4 h
# Lassa entry inh: Lassa virus entry inhibition; Lassa virus pseudotype entry inhibition, cell reporter; control for the full effect not named in the record; Potency, µM (titrated, usually from 37.9 µM), inactives show at the highest dose activity change, negative = inhibition, hits mostly inhibitors; 1.2% of 300,000 active; AID 540256; active means well fitted inhibition curve with a large enough effect; inconclusive means small, poorly fitted or top-dose-only effect, or effect the other way; inactive means flat fitted curve, though single readings scatter; tested in HEK293 cells; note: % is set by controls: 0 for no effect and ±100 for the full control effect; nearly all actives have a fitted effect of over 50% in size; luciferase read-out
# Cruzain Triton: blocks cruzain activity in presence of Triton detergent; Potency, µM, for the others: max response, negative = inhibition, most hits filed as inhibitors; P25779; purified cruzain, Z-FR-AMC fluorescence, 0.01% Triton; 0.43% of 200,000 active;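 note: plate controls were neutral wells for no effect and buffer without enzyme for full effect; nearly all actives have a fitted effect of over 40% in size; top concentration of the series not given in the record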
# Target sequence (P25779 123-467 limits assumed): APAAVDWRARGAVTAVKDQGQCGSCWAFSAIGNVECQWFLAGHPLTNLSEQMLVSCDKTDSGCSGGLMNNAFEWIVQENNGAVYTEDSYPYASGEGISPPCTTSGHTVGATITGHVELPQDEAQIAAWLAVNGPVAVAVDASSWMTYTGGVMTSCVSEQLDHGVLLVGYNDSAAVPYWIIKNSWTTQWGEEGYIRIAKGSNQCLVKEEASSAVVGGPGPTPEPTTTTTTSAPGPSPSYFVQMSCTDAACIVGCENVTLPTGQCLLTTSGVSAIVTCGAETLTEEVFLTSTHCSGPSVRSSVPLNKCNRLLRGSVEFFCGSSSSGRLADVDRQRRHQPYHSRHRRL
#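 Sodium acetate buffer (100 mM, pH 5.5) containing 5 mM DTT and 0.01% Triton X-100 hosted 1.5 nM cruzain and test compound for 15 min at room temperature. Cleavage of 2 uM Z-FR-AMC was then tracked by fluorescence.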
# SARS PLP yeast: inhibitors of SARS-CoV papain-like protease in yeast | S. cerevisiae expressing SARS-CoV PLpro, growth rescue; control for the full effect not named in the record | Potency, µM (titrated, usually from 32.9 µM), for inactives: at the highest dose activity, positive = growth rescue | 0.19% of 330,000 active | AID 485353; active means well fitted rising curve with a large enough effect; inconclusive means small, poorly fitted or top-dose-only effect; inactive means no such curve, though single readings can be large or run the other way; note: 0% is about no effect; nearly all actives have a fitted effect of over 55% in size; growth read by luminescence after 48 h
# Marburg entry inh: Marburg virus entry inhibition; Marburg virus pseudotyped entry inhibition, cell reporter; control for the full effect not named in the record; about a third of the inactives were read at about 46 µM; Potency, µM (highest dose often 37.8 µM), without a hit: at the highest dose activity change, negative = inhibition, most hits filed as inhibitors; 1.8% of 300,000 active; active = well fitted inhibition curve with a large enough effect; inconclusive = small, poorly fitted or top-dose-only effect, or effect the other way; inactive = flat fitted curve, though single readings scatter; tested in HEK293 cells; about a fifth of its hits are not listed in these tables; note: % is set by controls: 0 for no effect and ±100 for the full control effect; luciferase read-out
# RE007 growth inh: less growth of the S. pombe RE007 Vpr strain; S. pombe RE007 Vpr strain, BacTiter-Glo ATP luminescence, 24 h; control for the full effect not named in the record; Potency, µM (series often up to 92.2 µM), without a hit: at the top dose activity change, negative = less growth; 0.21% of 360,000 active; AID 651644; active = well fitted falling curve with a large enough effect; inconclusive = small, poorly fitted or top-dose-only effect; inactive = no such curve, though single readings can be large or run the other way;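 note: % is set by controls: 0 for no effect and ±100 for the full control effect; nearly all actives have a fitted effect of over 50% in size; the assay follows cell death caused by Vpr and the record does not say whether a fall means rescue or toxicity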
#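 Fission yeast strain RE007, carrying one chromosomally integrated HIV-1 vpr copy, was seeded at OD 0.01 in PMG+AL medium with 23 nL pinned compound. After 24 h at 30 °C and 99% humidity, viability was read by BacTiter-Glo luminescence.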
# NS1 function inh: blocks influenza NS1 protein function | S. cerevisiae slowed by influenza A NS1, growth recovery by OD600 | Potency, µM (top dose mostly 46.1 µM), for inactives: top-dose activity, positive = more growth | AID 2326 | 0.4% of 270,000 active; active means well fitted rising curve with a large enough effect; inconclusive means small, poorly fitted or top-dose-only effect; inactive means no such curve, though single readings can be large or run the other way; note: nearly all actives have a fitted effect of over 50% in size
#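 OD600 was taken as the measure of yeast growth restored by compound in an NS1-expressing S. cerevisiae strain. Cells had been washed out of glucose medium and diluted 1:100 into galactose -URA medium, pH 6.0.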
# Cruzain inh noDet: cruzain (T. cruzi) inhibition without detergent; P25779; purified cruzain, Z-FR-AMC fluorescence, no detergent; Potency, µM, for the others: max response, negative = inhibition, most hits filed as inhibitors; 2.3% of 200,000 active; AID 1476;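 note: plate controls were enzyme without inhibitor for no effect and buffer without enzyme for full effect; nearly all actives have a fitted effect of over 40% in size; top concentration of the series not given in the record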
#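 Purified cruzain at 1.5 nM, pre-incubated 15 min with compound at room temperature in 100 mM sodium acetate pH 5.5, 5 mM DTT, 0.00005% Triton X-100. Reaction started with 2 uM Z-FR-AMC; AMC fluorescence increase over 60 s gives rate.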
# Numbers without * were called inactive; ? = inconclusive; . = not tested or not shown; & = joins results of further samples; [ ] = another dose, or the depositor's remark. Unless noted, calls come from the whole dose curve; as a rule, active = well fitted curve in the direction sought with a large enough effect; inconclusive = small, poorly fitted or top-dose-only effect, or another doubt; inactive = no such curve, though single readings can be large; an effect the other way counts as inactive or inconclusive. Potency is the fitted concentration of half-maximal effect. Rows were taken by chance. Share with any hit: about 4.5%.
SMILES,StopGo reporter,Lassa entry inh,Cruzain Triton,SARS PLP yeast,Marburg entry inh,RE007 growth inh,NS1 function inh,Cruzain inh noDet
COc1ccccc1C(=O)n1nc(-c2ccco2)nc1NCc1ccc(Cl)cc1,20.9%,?,-6.8%,.,6.2%[46.1 µM],.,.,-18.0%
COc1cc2c(cc1OC)C(C)N(C(C)=O)CC2 (stereo not drawn),.,13.3%,-0.6%,2.7%,4.1%,-0.2%,2.7%,-7.1%
COc1ccc(C(CNC(=O)C2CC2)N(C)C)cc1 (stereo not drawn),15.6%,.,.,7.0%,.,-1.7%,16.8%,.
COc1ccc(Cl)cc1N1C(=O)CN(Cc2cc(OC)c(OC)c(OC)c2)C1=S,-29.7%,.,.,-0.2%,.,-1.8%,-12.5%,.
C[C@@]12CC(=O)NC1N(C(=O)c1ccccc1)C(c1ccccc1OC(=O)c1ccccc1)C2 (stereo partly drawn),-2.2%,-24.1%,4.7%,2.8%,?,7.7%,-3.2%,-2.9%
COc1ccc(CN2CCNC(=O)C2CC(=O)NCCCn2cccn2)cc1C (stereo not drawn),-17.6%,9.2%,.,2.0%,5.3%,5.7%,8.2%,.
Cc1cc(C)cc(NC(=S)N2C3CCCC2CC(NC(=O)C2CC2)C3)c1 (stereo not drawn),-11.4%,.,.,0.0%,?,0.8%,4.5%,.
CCC(C)NC(=O)c1cc(-c2cccc(OC)c2)on1 (stereo not drawn),41.4%[activator],1.8%[46.1 µM],-4.3%,.,?,.,.,-3.7%
O=C(C1CC1)N1CCN(C(c2ccccc2)c2ccccc2)CC1,.,-9.2%,2.9%,-17.3%,-19.3%,-7.6%,-8.7%,6.1%
CC(C)Oc1ccc(OCCCN2CCCCCC2)cc1,-0.5%,-20.8%,5.8%,-12.3%,?,-13.7%,0.2%,0.2%
CCOC(=O)N1CCN(C(=O)CN(c2cccc(C(F)(F)F)c2)S(=O)(=O)c2ccccc2)CC1,.,?,-0.6%,-2.9%,5.0%&9.9%,-1.3%,0.1%,?
CCC(=O)NCc1c(C)c(C)n(Cc2ccccc2)c1-n1cccc1,-15.7%,-9.4%[46.1 µM],.,4.8%,-1.8%[46.1 µM],8.0%,.,.
Cc1ccc(NC(=O)COc2coc(CN3CCc4ccccc4C3)cc2=O)cc1Cl,-22.8%,4.0%,.,0.5%,13.1%,5.1%,.,.
COc1ccccc1N(C)S(=O)(=O)c1ccc(Cl)c(C(=O)OCc2c(C)noc2C)c1,?,11.2µM*,.,0.0%,?,-14.0%,.,.
Cc1nn(Cc2ccccc2Cl)c(C)c1C(=O)NC1=NCCS1,-8.6%,-6.4%,2.8%,-13.1%,-12.9%[46.1 µM],16.2%,-78.0%,10.0%
CCOC(=O)c1cccc(NC(=O)NCCc2c(C)nn(C)c2C)c1,-10.2%,-1.4%[46.1 µM],-0.3%,.,.,.,.,0.5%
Cn1ccnc1Sc1ccc(/C=N/NC(=O)c2ccccc2[N+](=O)[O-])cc1[N+](=O)[O-],0.5%,21.4%,-0.7%,-1.7%,13.6%,-12.9%,-32.9%,-3.0%
COc1ccc(Br)c2c1C(=O)CC2,-1.7%,5.3%[46.1 µM],.,0.5%,-10.1%[46.1 µM],-24.4%,-2.5%,.
CC(C)(C(=O)O)n1cncn1,-7.2%,-0.4%,.,0.6%,10.8%[46.1 µM],1.9%,.,.
COc1ccc(CCN2CCCn3c2nc2c3c(=O)n(C)c(=O)n2C)cc1OC,2.9%,-4.4%[46.1 µM],.,0.8%,10.9%[46.1 µM],-4.9%,-5.3%,.
CC1(C)CC(=O)C2=C(C1)OC(N)=C(C#N)C2c1cn(-c2ccccc2)nc1-c1ccc(F)cc1 (stereo not drawn),0.0%,.,-4.3%,-0.1%,.,-14.7%,3.1%,-2.2%
O=C(O)C(Cc1c[nH]c2ccccc12)N1C(=O)C2C3c4ccccc4C(c4ccccc43)C2C1=O (stereo not drawn),12.4%,1.3%,.,0.7%,3.9%[46.1 µM],93.0%,5.0%,.
CC1=C(C(=O)O)CC(S(=O)(=O)O)C1(C)C (stereo not drawn),1.8%,7.6%,.,.,8.9%,12.4%,.,.
CC(=O)N1CCCc2cc(S(=O)(=O)N3CCN(C4CCCCC4)CC3)ccc21,-11.4%,-11.9%,1.9%,3.0%,-4.6%[46.1 µM],-25.3%,-39.7%,-12.1%
Cn1ccnc1C(=O)C1CCCN(Cc2cn[nH]c2-c2ccc(-c3ccccc3)cc2)C1 (stereo not drawn),10.0%,-2.0%,.,-0.2%,-23.8%,-12.1%,6.4%,.
SMILES,StopGo reporter,Lassa entry inh,Cruzain Triton,SARS PLP yeast,Marburg entry inh,RE007 growth inh,NS1 function inh,Cruzain inh noDet
O=C(O)c1cc(-c2ccc3ccccc3n2)nc2ccccc12,?,?,.,-1.8%,?,-2.3%,-38.0%,.
CN(Cc1cccs1)C(=O)/C=C/c1ccccc1[N+](=O)[O-],80.0%[activator],12.9%,.,-0.6%,8.7%[46.1 µM],-15.7%,.,.
COc1ccc2c(c1OC)C(=O)N(c1ccc(C)c(C)c1)C2=O,54.4%[activator],7.4%,2.4%,-18.0%,8.2%[46.1 µM],-10.7%,2.8%,11.8%
Fc1ccc(-c2csc(/C=C/c3ccc4c(c3)OCO4)n2)cc1,52.0%[activator],.,-2.1%,-18.1%,.,-10.7%,-2.9%,-26.1%
CCc1ccccc1NC(=O)c1sc2nc(C)cc(COC)c2c1N,-5.1%,-25.7%[46.1 µM],-7.7%,.,.,.,.,3.0%
O=C(COC(=O)/C=C/c1cccc(Br)c1)NC1CCCC1,-2.8%,8.0%[46.1 µM],.,-1.2%,-3.2%[46.1 µM],0.8%,.,.
CCn1c(SCc2ccc(Cl)cc2)nnc1-c1ccccc1,-0.1%,7.3%,-3.9%,-23.7%,16.2%,1.4%,1.4%,-4.6%
CCc1noc(C)c1C(=O)N1CCCC(C(=O)c2ccc(OC)c(F)c2)C1 (stereo not drawn),-23.1%,1.9%,.,0.3%,8.5%,-4.9%,-2.1%,.
O=c1[nH]c(=S)n(-c2ccccc2F)c(O)c1C=NCc1ccco1,-5.3%,11.9%,-6.0%,1.6%,10.6%,-2.9%,2.1%,-5.7%
CCOP(=O)(c1ccccc1)c1nc(-c2ccccc2Cl)oc1N1CCCCC1 (stereo not drawn),-21.0%,?,-15.7%,-33.0%,?,5.0%,-6.0%,?
CCN(CC)c1ccc(C2C(C(N)=O)=C(C)Nc3nc(SCc4ccccc4Cl)nn32)cc1 (stereo not drawn),-20.2%,?,-0.8%,.,?,.,.,-13.9%
CCOC(=O)C(NC(=O)NC1CCCCC1)(c1ccccc1)C(F)(F)F (stereo not drawn),-8.6%,-0.4%,2.6%,4.8%,-3.4%,0.5%,-2.1%,3.16µM*
CCc1nnc(NC(=O)CSc2nnc3c4ccccc4n(C)c3n2)s1,-13.1%,2.4%,-4.5%,1.3%,8.1%,17.3%,6.6%,12.1%
CC(NC(=O)COC(=O)c1ccc(N(C)C)cc1)c1ccccc1 (stereo not drawn),-15.2%,?,.,-5.7%,?,2.2%,1.0%,.
CCC(=O)Nc1cccc2c1C(=O)N(C)C2=O,-18.1%,-1.5%,-3.3%,8.2%,8.9%,-7.9%,9.3%,3.5%
COc1ccc(CNC(=O)C2CCN(S(=O)(=O)Cc3ccccc3)CC2)cc1,-19.3%,26.7%[46.1 µM],0.6%,.,?,.,.,-6.8%
Cc1cnc(C(=O)N2CCCC(N3CCN(c4cccc(C(F)(F)F)c4)CC3)C2)cn1 (stereo not drawn),21.9%,-21.9%[46.1 µM],.,-8.8%,?,-4.7%,-22.6%,.
Cc1nc(=O)c(-c2ccccc2)c(C)n1CCCCCC(=O)O,-16.5%,12.4%,9.1%,-5.5%,14.0%,12.2%,4.1%,0.6%
O=[N+]([O-])c1ccc(NC(=S)N2CCN(S(=O)(=O)c3ccccc3)CC2)cc1,28.0%,-13.5%,.,-1.7%,-9.5%,3.6%,6.1%,.
C=CCn1cc(-c2cccc(C(F)(F)F)c2)cc(C#N)c1=O,-14.3%,12.2%[46.1 µM],.,2.0%,-5.0%[46.1 µM],3.1%,.,.
CCc1cc2c(=O)[nH]c(COC)nc2s1,16.3%,10.8%,-1.9%,-2.2%,24.0%,0.1%,1.6%,9.6%
CCc1ccc(NC(=O)Cn2c(=O)n(CCC(=O)NCCc3ccc(OC)c(OC)c3)c(=O)c3ccccc32)cc1,6.5%,-2.9%[46.1 µM],0.7%,.,7.2%[46.1 µM],.,.,-14.5%
Cc1cc(C)nc(NCc2ccc(Cl)cc2)n1,-9.4%,?,.,0.7%,?,-6.5%,-9.5%,.
O=C(O)c1ccc(-c2ncc[nH]2)cc1,4.0%,9.9%,.,-0.2%,7.7%[46.1 µM],-11.9%,.,.
Cc1ccc(S(=O)(=O)C(C)C(=O)c2ccc3c(c2)OCCO3)cc1 (stereo not drawn),26.1%,-2.5%,-8.9%,11.9%,?,0.9%,1.6%,-0.8%
SMILES,StopGo reporter,Lassa entry inh,Cruzain Triton,SARS PLP yeast,Marburg entry inh,RE007 growth inh,NS1 function inh,Cruzain inh noDet
Cc1ccc(-c2nc3cccnc3s2)cc1NS(=O)(=O)c1cccs1,54.6%[activator],.,.,-3.1%,.,-1.0%,-18.0%,.
COc1ccc(CNC(=O)C2CCCCN2S(=O)(=O)c2ccc(F)cc2)cc1 (stereo not drawn),-6.5%,?,-2.0%,.,.,.,.,-14.0%
Cc1ccccc1C(C(=O)NCc1ccco1)N(CC1CCCO1)C(=O)Cn1nnc2ccccc21 (stereo not drawn),-4.9%,3.6%,3.3%,6.2%,1.3%&3.4%,8.9%,-0.6%,22.8%
Cc1ccc(-c2nc3c(cnn3-c3ccccc3)c(=O)n2-c2cccc(Cl)c2)cc1,-13.8%,-5.8%[46.1 µM],-8.1%,.,.,.,.,?
CCCCNC(=O)CSc1nc2n[nH]c(C)c2c(=N)n1-c1cccc(C)c1,-9.6%,?,-1.5%,.,.,.,.,-6.4%
COc1cc(S(=O)(=O)NC2CCCCC2C)ccc1F (stereo not drawn),35.3%[activator],-15.4%[46.1 µM],.,-16.4%,?,10.5%,-152.2%,.
